# Screens from PubChem BioAssay.
# Autofluor counter: compound fluorescence in toxin protease inhibitor counterscreen; compound autofluorescence counterscreen, microsphere flow cytometry; stronger effect = higher value; 360,000 tested, 3.1% active; fluorescence intensity (test concentration not listed); AID 624483;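 active = at least 3 SD above the mean of all compounds, about 16000 in these data; inconclusive = too few beads counted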;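 note: 100 nL of 1 mM stock went into each well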
# Mtb hypoxia rep: inhibitors of hypoxia-regulated fluorescent reporter in Mycobacterium tuberculosis | M. tuberculosis hypoxia-regulated fluorescent reporter, fluorescence | 300,000 tested, 0.1% active | fluorescence inhibition, % (concentration not given with the values);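 active = 35 to 45% if threefold the growth effect, above 45% if 1.5-fold the growth effect; inactive = the rest, general growth blockers included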;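 note: wells of about 50 µL received 100 nL stock; 0% = vehicle wells and 100% = reference inhibitor wells; whole bacteria with a GFP reporter of the hypoxia response; strong numbers were not always called active; many hits fall short of the cut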
# BJeLR viability: kills HRASV12-expressing BJeLR cells; BJeLR (HRASV12) viability, CellTiter-Glo ATP luminescence, 48 h; reference of the scale not given here; inhibition, % (no concentration beside the values); 300,000 tested, 0.17% active; AID 1554;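 active = replicate mean above 50%; inconclusive = above 50% but judged a plate artefact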;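 note: 50 nL library stock added to about 25 µL; numbers are from one replicate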
# PrP 5UTR inh: inhibition of PrP 5' UTR reporter expression; cell-based PrP 5' UTR mRNA reporter, plate reader; inhibition, % (test concentration not listed); 340,000 tested, 0.35% active; AID 488862;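 active = every replicate at 50% or more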;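 note: 0 = median of the neutral control wells; tested in H4 reporter cells; numbers are from one replicate; inactives centre near -14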
# Sa RN4220 lethal: kills Staphylococcus aureus RN4220. S. aureus RN4220 growth, OD600, 16 h. inhibition, % (concentration not given with the values). 330,000 tested, 0.33% active. AID 1259311;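 active = z-score of -3 or lower and OD600 up to 0.18 on both plates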;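 note: plate controls were untreated cells for no effect and reference antibiotic for full effect; stock transfer was 100 nL into about 80 µL; one replicate is shown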
# ugtP null kill: growth inhibition of S. aureus ugtP deletion strain; growth inhibition, % (test concentration not listed); S. aureus RN4220 ugtP deletion, OD600 growth, 16 h; some inactives read as strong as hits; 330,000 tested, 0.54% active;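 active = z-score under -3 and OD600 up to 0.15 on both plates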;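 note: plate controls were untreated wells for no effect and antibiotic for full effect; wells of about 80 µL received 100 nL stock; the first replicate is given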
# Mtb hypoxia rep growth: also measured in Mtb hypoxia rep; calls as there; growth inhibition, %; measured here: M. tuberculosis growth (absorbance);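 0% = vehicle and 100% = reference antibiotic; read after six days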
# * hit, by the source's call; ? = inconclusive; . = no result given. Not a hit list (roughly 3.9% active in at least one column).
SMILES,Autofluor counter,Mtb hypoxia rep,Mtb hypoxia rep growth,BJeLR viability,PrP 5UTR inh,Sa RN4220 lethal,ugtP null kill
CC(=O)Nc1ccc(OCC(=O)NC(C)c2ccc(F)cc2)cc1 (stereo not drawn),3953,2,3,0,-33,-0.1,3
COCCN(Cc1ccccc1)C(=O)c1cccc(S(=O)(=O)N(C)c2c(C)n(C)n(-c3ccccc3)c2=O)c1,5208,-14,-11,-1,-18,1.1,4
COc1ccc(C2(C)CC(=O)NC2=O)cc1 (stereo not drawn),3737,14,7,-10,-27,1.6,14
Cc1ccnc(NC(=O)Cn2cc([N+](=O)[O-])cn2)c1,3929,-5,7,5,-31,1.1,1
CC1CN=C(N(Cc2ccccc2)C(=O)Nc2ccccc2)S1 (stereo not drawn),?,10,4,-7,-6,0.0,6
COc1ccccc1NS(=O)(=O)c1cccc(C(=O)NNC(=O)c2ccc(=O)[nH]c2)c1,3407,1,-4,.,-6,3.0,4
COc1ccc2c(=O)c(-c3ccc(C)cc3)c(-c3ccccc3)oc2c1,2948,5,7,.,-19,4.1,15
CC1(C)CC1C(=O)Nc1ccc([N+](=O)[O-])cc1Br (stereo not drawn),7598,9,16,3,-14,5.7,9
O=C(Nc1ccccc1N1CCOCC1)c1cnccn1,2969,.,.,0,-14,.,.
CCOC(=O)[C@@H]1[C@H]2COc3ccccc3[C@H]2N2C(=O)N(c3ccccc3)C(=O)[C@]12C,3994,.,.,4,-27,.,.
O=C(C1CC1)N1CCN(S(=O)(=O)c2ccc3c(c2)OCCO3)CC1,4656,14,6,9,-18,8.6,1
O=C(O)c1ccc(S(=O)(=O)c2ccc3c(c2)C(=O)N(NC(=O)c2cccnc2)C3=O)cc1,4525,-10,3,-19,-26,2.6,1
CC(=NNC(=O)c1sc(NS(=O)(=O)c2ccccc2)nc1C)c1ccc(F)cc1,.,6,4,.,.,4.4,-7
O=C(Nc1ccc(-c2csnn2)cc1)C1CC1,4690,12,7,1,-37,5.1,10
CCn1c(SCC(=O)NCc2cccs2)nnc1-c1ccco1,4585,.,.,-1,-27,2.5,2

# Structural class: the entries above containing a halogen
SMILES,Autofluor counter,Mtb hypoxia rep,Mtb hypoxia rep growth,BJeLR viability,PrP 5UTR inh,Sa RN4220 lethal,ugtP null kill
CC(=O)Nc1ccc(OCC(=O)NC(C)c2ccc(F)cc2)cc1 (stereo not drawn),3953,2,3,0,-33,-0.1,3
CC1(C)CC1C(=O)Nc1ccc([N+](=O)[O-])cc1Br (stereo not drawn),7598,9,16,3,-14,5.7,9
CC(=NNC(=O)c1sc(NS(=O)(=O)c2ccccc2)nc1C)c1ccc(F)cc1,.,6,4,.,.,4.4,-7

# Next entries follow:
SMILES,Autofluor counter,Mtb hypoxia rep,Mtb hypoxia rep growth,BJeLR viability,PrP 5UTR inh,Sa RN4220 lethal,ugtP null kill
CCN(CC)C(=O)CSc1nc(O)c(Cc2ccccc2)c(=O)n1-c1ccccc1C,3611,9,-3,12,-15,6.4,12
Cc1noc(C)c1C=NNc1ccc2ccccc2n1,.,-6,-11,.,.,5.6,26
CCOC(=O)C1=C(COc2ccc(F)cc2Cl)NC(=O)NC1c1cc(C)ccc1C (stereo not drawn),9528,1,-7,-3,-4,10,13
C=CCOC(=O)C1=C[C@@H](c2ccc(Br)cc2)C[C@@H](OCc2ccc(CO)cc2)O1,4058,.,.,-3,-27,.,.
COc1ccc(CCN2C(=O)C3C4CC(C5C(C(=O)N/N=C\c6ccc(Cl)cc6)=NOC45)C3C2=O)cc1OC (stereo not drawn),2991,.,.,1,-7,.,.
COC(=O)/C=C/CC(C)OS(N)(=O)=O (stereo not drawn),4278,.,.,5,-41,.,.
Cc1ccc(NC(=O)c2ccc(Cl)c(NC(=O)c3cccs3)c2)cc1,?,2,5,13,-30,7.8,3
Cc1cc(C(=O)NN=Cc2ccco2)c2ccccc2n1,.,6,4,.,.,-1.6,13
CN(C)S(=O)(=O)c1ccc(N2CCCC2)c(C(=O)NCc2ccc(Cl)cc2)c1,.,.,.,-3,-18,-0.7,4
Cc1ccc2c(c1)S(=O)(=O)c1ccc3ccccc3c1N2,3909,8,-1,.,-14,6.1,6
CCOC(=O)c1ccc(NC(=S)N2CCN(C(=O)C3CCCO3)CC2)cc1 (stereo not drawn),5775,7,6,-1,-6,6.5,4
CC(C)C(=O)Nc1nc(-c2ccccc2)ns1,22460*,0,2,21,-68,3.3,-10
O=C(NN1C(=O)C2C(C1=O)C1C=CC2C12CC2)c1cccnc1 (stereo not drawn),4154,6,11,3,-9,3.3,-7
CCN(CC)S(=O)(=O)c1ccc2c(c1)nc(CCC(=O)Nc1cccc(C(F)(F)F)c1)n2CC,3085,9,10,6,-28,3.3,-13
O=C1CSC(c2ccccc2F)N1c1ccccc1 (stereo not drawn),10066,12,3,-6,-1,8.6,10
CCOC(=O)c1c(NC(=O)CSc2nc3ccccc3c(=O)n2-c2ccccc2)sc(C(C)=O)c1C,2507,5,-2,-11,1,2.2,-2
Cc1cc(C(=O)Nc2ccc(S(=O)(=O)Nc3onc(C)c3C)cc2)cs1,7607,9,14,-1,-29,2.6,11
CC(C)NS(=O)(=O)c1ccc(CCC(=O)N2CCC(C(N)=O)CC2)cc1,4522,-2,2,5,-20,-1.0,1
Cc1cccc(NC(=S)N2CCN(c3ccc(F)cc3)CC2)c1,2159,-3,6,-3,2,1.1,0
COc1ccc(C(=NO)C(=NO)c2ccc(OC)cc2)cc1,.,1,4,.,.,3.3,8
Cc1ccc(-n2c(O)c(/C=C/C=Nc3ccccc3)c(=O)[nH]c2=O)cc1,3252,3,-1,-1,-2,5.7,0
COc1ccccc1-c1cn[nH]c1-c1ccc(OCc2ccccc2)cc1O,3394,.,.,-4,1,.,.
O=C(c1ccc(F)c(S(=O)(=O)N2CCOCC2)c1)N(c1ccccc1)c1ccccn1,4286,17,9,0,-26,8.2,-70
COc1ccccc1CNCC(=O)Nc1ccc(C(F)(F)F)cc1,3460,2,-5,5,-14,1.8,-5
CCOC(=O)C1CCCN(C(=O)C2CCN(S(=O)(=O)c3cccs3)CC2)C1 (stereo not drawn),10047,-10,0,2,-15,-3.3,-3
CC(=O)Nc1cccc(C(=O)OC(C)C(=O)NC(=O)NC2CCCCC2)c1 (stereo not drawn),6183,2,7,-7,-6,1.8,3
CCc1nc(Nc2ccc3c(c2)OCCO3)c2oc3ccccc3c2n1,17390*,2,6,-7,9,30,4
CCOC(=O)COc1ccc(C)cc1-c1ccno1,9490,10,10,3,-21,6.1,-4
O=C(NCc1cccs1)C(=O)NCC(c1ccco1)N1CCN(c2ccccc2)CC1 (stereo not drawn),5630,9,12,-4,-11,-0.5,10
O=C(CSc1ccccc1)OCC(=O)N1CCN(C(=O)c2ccco2)CC1,6162,2,-2,.,-10,0.8,6

# Results in Mtb hypoxia rep, ugtP null kill and Mtb hypoxia rep growth, for 2 of the compounds above:
Molecule,Mtb hypoxia rep,ugtP null kill,Mtb hypoxia rep growth
CC(=O)Nc1cccc(C(=O)OC(C)C(=O)NC(=O)NC2CCCCC2)c1 (stereo not drawn),2,3,7
CCc1nc(Nc2ccc3c(c2)OCCO3)c2oc3ccccc3c2n1,2,4,6

# Other entries
SMILES,Autofluor counter,Mtb hypoxia rep,Mtb hypoxia rep growth,BJeLR viability,PrP 5UTR inh,Sa RN4220 lethal,ugtP null kill
Cc1ccc2cc(/C=N/NC(=O)CN3CCCCC3)c(Cl)nc2c1,5025,.,.,4,-27,.,.
Cc1ccsc1C(C(=O)NC1CCCCC1)N(C(=O)c1csnn1)C1CC1 (stereo not drawn),8596,6,8,4,-30,5.8,1
CCCCCC(=O)N1CCCCC1,4064,.,.,3,-27,3.3,2
O=[N+]([O-])c1cccc(CNc2ccc3c(c2)CCC3)c1,9073,11,6,-24,-17,1.6,-4
CSc1ncc(C(=O)Nc2ccc(C(C)=O)cc2)c(-c2ccccc2)n1,2948,8,1,-4,-21,2.2,7
N/C(=N\S(=O)(=O)c1ccc(Cl)s1)c1ccccc1,2270,8,3,10,-6,4.5,3
COc1ccc(CNc2ccc(Cl)cc2)cc1Cn1ccnc1,3027,12,2,-10,-11,-1.1,7
Nc1[nH]n2c(=O)cc(-c3ccccc3)nc2c1N=Nc1ccc2c(c1)OCO2,.,19,2,7,.,42,42
CCN(CC)S(=O)(=O)c1ccc(-c2nnc3sc4cccc(C)c4n23)cc1,6011,.,.,-14,-9,-3.5,-6
NS(=O)(=O)c1ccc(CCNC(=O)c2ccc3c(c2)N(Cc2ccccc2)CCS3)cc1,5455,-10,3,3,-4,-1.7,-3
CCOC(=O)c1ccc2nc(C)cc(Nc3cccc(C(=O)O)c3)c2c1,.,2,-6,8,.,-4.4,-5
COc1ccc(CN(C(=O)CN2C(=O)c3ccccc3S2(=O)=O)C(C(=O)NCC2CCCO2)c2ccco2)cc1 (stereo not drawn),3887,1,3,5,-19,-0.6,15
CCCCN(C(=O)c1c(C)[nH]c(C(=O)OCC)c1C)c1ccccc1,11471,10,9,2,.,9.6,6
COc1ccc(C(=O)NC(=S)Nc2ccc(N3CCOCC3)c(Cl)c2)cc1[N+](=O)[O-],2600,15,12,-2,-26,5.8,83
COC(=O)c1nn(C23CC4CC(CC(C4)C2)C3)c2c1C(=O)N(c1ccc(F)cc1)C2=O,3471,3,2,-6,-19,-4.7,0
COc1ccc(C(=O)NNC(=O)c2cc3cccc(OC)c3oc2=O)cc1,2081,16,12,8,-7,6.5,-2
CC(C)C(=O)N1CCN(c2ccc(NC(=O)c3ccc([N+](=O)[O-])o3)cc2Cl)CC1,3987,.,.,.,-74,47,56
CCOc1ccccc1-n1nnnc1SCC(=O)Nc1cc2oc3ccccc3c2cc1OC,9396,-4,-1,-17,-12,2.7,-18
O=C1NCCN1CCNS(=O)(=O)c1ccc2ccccc2c1,9430,0,5,-2,-22,6.2,-8
CC(=O)c1cc(C#N)c(SCc2ccc(F)cc2)nc1C,4304,.,.,3,-30,-2.0,1
COCCCC1CCN(C(=O)C2CCC(=O)N(C3CCCCCC3)C2)CC1 (stereo not drawn),6021,-8,0,7,1,2.7,4
O=C(OCC1COc2ccccc2O1)c1c(F)cccc1F (stereo not drawn),10909,10,8,1,-29,11,10
CCC(C)[C@H](NC(=O)[C@@H]1Cc2c([nH]c3ccccc23)C2c3ccccc3C(=O)N21)C(=O)NCC1CCCO1 (stereo partly drawn),5298,.,.,-3,-9,6.2,-3
COc1cccc(NC(=O)NCc2cccn2C)c1,2355,22,-14,9,-13,-15,-4
COc1ccc(CC(N)C(=O)NC2C(CO)OC(n3cnc4c(N(C)C)ncnc43)C2O)cc1 (stereo not drawn),.,.,.,.,.,-1.9,-18
CC(C)CCNC(=O)C(c1cccnc1)N(CCc1ccccc1)C(=O)Cn1nnc2ccccc21 (stereo not drawn),5048,2,3,-9,-20,2.7,-3
CCS(=O)(=O)c1nc(S(=O)(=O)c2ccc(Cl)cc2)c(NCCCN2CCOCC2)s1,4826,-7,1,6,9,2.7,0
CCn1cc(/C=C/c2cc[n+](C)cc2)c2ccccc21,7776,0,10,37,-15,1.3,-1
CC1=CC(=Cc2sc3ccccc3[n+]2C)C=C(C)O1,2651,8,9,11,-9,10,7
Cn1c(=O)c2c(nc(NCc3ccccc3)n2CCCc2ccccc2)n(C)c1=O,2198,22,-15,9,10,21,16
Cc1cccc(C(=O)N[C@@H]2c3ccccc3C[C@@H]2O)n1,3067,.,.,-3,-10,.,.
C/C(=N\NC(=O)c1cccc([N+](=O)[O-])c1)c1cccnc1,3328,.,.,6,-4,.,.
Cc1cc(N2CCN(C)CC2)nc2ccc(NC(=S)N3CCN(c4cccc(Cl)c4)CC3)cc12,4431,-7,-4,-6,-34,1.3,6
CN(C(=O)CS(=O)(=O)c1cccc(Cl)c1)c1ccccc1,3402,7,6,2,-17,3.8,5
CN(C)c1ccc(C=NCCC2(O)CCOC(C)(C)C2)cc1 (stereo not drawn),6649,-3,0,-5,-14,5.9,-1
Cc1nonc1C(=O)NN=Cc1ccncc1,.,3,3,.,.,0.8,3
CCOC(=O)N1N=C(c2ccccc2)CC1(O)C(F)(F)F (stereo not drawn),4583,.,.,-5,-55,3.5,-3
CCOC(=O)CSc1nnc(COc2cccc(C)c2)o1,4901,18,12,7,-8,4.1,3
CC(C)C(=NO)c1ccccc1,3657,-2,6,.,-12,3.0,-1
CCCN1C(=O)/C(=C/c2cc(C)n(C)c2C)SC1=Nc1ccc(OC)cc1,2431,.,.,-4,-6,.,.
CCOc1cc(Cl)c(S(=O)(=O)NCc2ccccn2)cc1Cl,8729,13,6,3,-5,3.6,-9
